HSD17B inh: blocks hydroxysteroid 17-beta dehydrogenase activity; Q99714; recombinant HSD17B10, NADH fluorescence kinetic; many of its hits are not listed in these tables; Potency, µM (doses to about 57.1 µM), for the others: at the top dose activity change, negative = inhibition, actives largely listed as inhibitors; 75,000 tested, 7.6% active; AID 893; active = well fitted inhibition curve with a large enough effect; inconclusive = small, poorly fitted or top-dose-only effect; inactive = no such curve, though single readings can be large or run the other way;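 also: the protocol describes HADH2 (HSD17B10) and not the HSD17B4 of the title; nearly all actives have a fitted effect of over 70% in size; most hits overshoot -100% by far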
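20 nM HADH2, pH 9.0 Tris/Tween; cpd preinc 15 min RT; start w/ 1 mM NAD+ + 90 uM b-hydroxybutyryl-CoA; kinetic fluor ex360/em450 q30s x 4 min; delta last-first.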
Active calls of the source: *; ? = inconclusive; [ ] = dose if it differs, or a comment. % is scaled to controls: 0 for no effect and ±100 for the full control effect; potency is read from the fitted curve at half-maximal effect.

SMILES,HSD17B inh
Cc1ccccc1NC1C=CS(=O)(=O)C1 (stereo unspecified),6%
COc1ccc(NS(=O)(=O)c2ccc(OCC(=O)N3CCCC3)cc2)cc1,7%
Cc1ccc(S(=O)(=O)N2CCC(C(=O)N[C@H](C(=O)NCc3ccco3)C(C)C)CC2)cc1,5%
O=C(CN1C(=O)c2ccccc2C1=O)NCC1COc2ccccc2O1 (stereo unspecified),4%
CCOc1ccc(C)cc1S(=O)(=O)Nc1cccnc1,-2%
Cc1ccccc1-c1cc(Nc2ccc(F)cc2)ncn1,-11%
c1ccc(CN(Cc2ccco2)C(c2ccncc2)c2nnnn2C2CCCC2)cc1 (stereo unspecified),?
CC1=CC(=C(C#N)c2nc3ccccc3s2)C=C(C)N1Cc1ccco1,-3%

Three entries from above, set out differently.
compound: CCOc1ccc(C)cc1S(=O)(=O)Nc1cccnc1
  HSD17B inh = -2%
compound: c1ccc(CN(Cc2ccco2)C(c2ccncc2)c2nnnn2C2CCCC2)cc1 (stereo unspecified)
  HSD17B inh = ?
compound: Cc1ccccc1-c1cc(Nc2ccc(F)cc2)ncn1
  HSD17B inh = -11%

Further entries follow.
SMILES,HSD17B inh
CS(=O)(=O)NCCSCc1ccc(Cl)cc1,12%
CN1CC(=O)N/C1=N\C(=O)Nc1ccc2c(c1)N(C)C(=O)CS2,-22%
CN(C(=O)c1ccccc1C(=O)c1ccccc1)C1CCS(=O)(=O)C1 (stereo unspecified),-5%
COC(=O)c1[nH]c(C)c(/C(O)=C2\C(=O)C(=O)N(CCN(C)C)C2c2ccc(C)o2)c1C (stereo unspecified),-25%
Cc1ccc(C(=O)NCCN(C)C)c(C)c1,2%
C=CCn1c(C)c(C(C)=O)c(N2CCCC2)nc1=S,9%
COC(=O)c1cc(NC2c3ccccc3C(=O)N2c2ccc(Cl)cn2)cc(C(=O)OC)c1 (stereo unspecified),-11%
CCOC(=O)CCSc1nc(C)cc(C(F)(F)F)c1C#N,-8%

Part of the list above, set out differently.
smiles: Cc1ccccc1NC1C=CS(=O)(=O)C1 (stereo unspecified)
  HSD17B inh: 6%

smiles: CCOc1ccc(C)cc1S(=O)(=O)Nc1cccnc1
  HSD17B inh: -2%

smiles: Cc1ccccc1-c1cc(Nc2ccc(F)cc2)ncn1
  HSD17B inh: -11%

smiles: c1ccc(CN(Cc2ccco2)C(c2ccncc2)c2nnnn2C2CCCC2)cc1 (stereo unspecified)
  HSD17B inh: ?

Additional structures:
SMILES,HSD17B inh
COC1(OC)N=C(NC(=O)Nc2ccccc2)C2(C#N)C(c3ccccc3)C12C#N (stereo unspecified),-3%
O=C(NCCN1CCN(c2ccccc2F)CC1)C1c2ccccc2C(=O)N2CCc3ccccc3C12 (stereo unspecified),12%
CC1CCN(C(=O)CNC(=O)Cn2ccc3ccccc3c2=O)CC1,-11%
COC(=O)CNC(=O)COC(=O)c1cc(Cl)cc(Cl)c1N,25µM*
C[C@@]12CCC(=O)C=C1CC[C@H]1[C@@H]2[C@@H](O)C[C@]2(C)[C@@H]1CC[C@@]2(O)C(=O)COC(=O)C1CCCC1,-2%[11.4 µM]
CCN(CC)S(=O)(=O)c1cc(C(=O)Nc2ccccc2C(=O)O)ccc1OC,9%
CCN(CC)CCCC(C)n1c(-c2ccccc2)nc2c(N(CCOC)CCOC)nc(C)nc21 (stereo unspecified),32µM*
Cc1ccccc1NC(=O)CSc1nnc(Cc2cccn2C)n1-c1ccc(F)cc1,5%
CCOC(=O)N1CCN(C(=O)c2ccccc2NC(=O)c2ccc(OC)cc2)CC1,11%
COC(=O)c1ccc(COc2cc(O)c3c(c2)OC(C)(C)CC3=O)cc1,6%
CC1CCN(C(=O)COC(=O)c2cc3ccccc3cc2O)CC1,0%
CC(=O)Nc1ccc(C(=O)CSc2nnc(C)o2)cc1,-7%
O=C(c1ccc(=O)oc1)N1CCCc2ccccc21,25µM*
COC(=O)CC1C(C)(C)C(O)C2CC3=C4CC(O)OC(c5ccoc5)[C@]4(C)CCC3[C@@]1(C)C2=O (stereo partly specified),0%
Cc1cc(N2CCN(C/C=C/c3ccccc3)CC2)n2ncnc2n1,0%
COC(=O)c1cc(Cl)c(NS(=O)(=O)c2ccccc2)cc1OC,?
CCOC(=O)N1CCC(Nc2c(OCC)c(=O)c2=O)CC1,1%
CCN1CCN(c2ccc(NC(=O)c3cccnc3)cc2Cl)CC1,2%
CC(=O)c1cc(-c2ccccc2)n(CC(=O)NCc2cccs2)c1C,10%
COc1cccc(-n2c(SCC(=O)O)nnc2-c2cccnc2)c1,0%
O=C(C1CCN(S(=O)(=O)c2cccnc2)CC1)N1CCN(C2CCCC2)CC1,-8%
COc1cccc(-c2cc(C(=O)Nc3cccc(O)c3)no2)c1,-21%
Cc1cc(S(=O)(=O)NCCCN2CCOCC2)ccc1F,6%
COc1ccc(C2=NOC(C(=O)NCC(C)C)C2)cc1 (stereo unspecified),3%
CCCCNc1nc(C)nc2c1nc(C)n2CCC,15%
COC(=O)c1cn(C(=O)c2ccccc2F)nc1N,-6%
Clc1ccc2nc(-c3ccccc3)[nH]c2c1,10µM*
Cc1c(Cl)cccc1NC(=O)CCN1CCCCC1,6%
Cc1noc(C)c1CSc1nc2ccccc2n1CCc1ccccc1,-18%
CCCN1Cc2cccc(C(=O)Nc3ccc4c(c3)OCO4)c2C1=O,-8%
CCSc1nnc(C)c2ccccc12,6%
CCOC(=O)c1cnc2c(C)c(Cl)ccc2c1N1CCOCC1,11%
O=C(c1c[nH]c2ccc(S(=O)(=O)N3CCOCC3)cc2c1=O)N1CCCC1,25µM*
CN(c1ccc(C(=O)NCc2ccco2)cc1)S(C)(=O)=O,9%
COc1cccc(C(=O)NC2CC3CCCC(C2)N3CC(=O)Nc2ccc(N(C)C)cc2)c1 (stereo unspecified),6%
COc1cccc(-c2nnc(SCc3cccnc3)o2)c1,7%
CCOC(=O)Cn1c(C(C)=O)nc2ccccc21,?
COc1ccc2[nH]c(=O)c(CN(CCCN(C)C)C(=O)Nc3ccccc3)cc2c1,25µM*
CC(C)CSC[C@@H]1O[C@H](n2cnc3c(N)nccc32)[C@H](O)[C@@H]1O,1%[11.4 µM]
COc1ccc(NCc2nnc(SCC(=O)Nc3cc(C(F)(F)F)ccc3Cl)o2)cc1,-2%
Nc1nc2ncc(CNc3ccc(C(=O)NC(CCC(=O)O)C(=O)O)cc3)nc2c(=O)[nH]1 (stereo unspecified),-1%
COc1cc(NC(=O)C2CCC(CNc3c(N4CCCCC4)c(=O)c3=O)CC2)cc(OC)c1 (stereo unspecified),3%
COc1ccc(NC(=O)/C=C\c2ccc(Cl)cc2)cc1,-14%
COc1ccc(CCNC(=O)COC(=O)c2cnccn2)cc1,15%
CC1C(O)CC2C(C(=O)O)=CO[C@@H](O[C@H]3OC(CO)C(O)C(O)C3O)C21 (stereo partly specified),-1%
C=CCn1c(SCC(=O)C(C)(C)C)nnc1-c1cccs1,-9%
COC(=O)[C@@H]1C[C@@H]2CC[C@@H](O)C[C@@H]2N1Cc1ccc(OC)cc1,-3%
CC1(C)CC(=O)N(c2ccccc2)C1(C)O (stereo unspecified),2%
CCOc1cc(S(=O)(=O)NCc2ccccc2)ccc1F,0%
CCCc1ccc(OCC(O)CN2CCN(c3ccccc3)CC2)cc1 (stereo unspecified),6%
c1ccc(CN2CCN(c3nc4ccccc4n4cnnc34)CC2)cc1,0%
O=C(C1CC1)N1CCc2cc(Br)cc(S(=O)(=O)NCC3COc4ccccc4O3)c21 (stereo unspecified),0%
CCCCn1c(SCC(=O)Nc2cc(C)[nH]n2)nc2ccsc2c1=O,-2%
Cc1ccc(S(=O)(=O)NCCCN(C)C)cc1,7%
CCOC(=O)c1cc(C)n(S(=O)(=O)c2ccc(C)cc2)c1C,-2%
O=c1nc2ccccc2c2n1C[C@H](CN1CCN(c3ccccc3)CC1)N2,-2%

Next records.
SMILES,HSD17B inh
O=C(CCCn1c(=S)[nH]c2ccc(Br)cc2c1=O)N1CCN(c2ccccn2)CC1,-7%
CCCCOC(=O)CCc1n[nH]c(=O)[nH]c1=O,2%
COc1ccc(S(=O)(=O)N2CCCC2C(=O)NCc2cccs2)cc1 (stereo unspecified),9%
C=CCn1c(SCC(=O)Nc2c(C)nn(Cc3ccccc3)c2C)nnc1C(O)c1ccccc1 (stereo unspecified),14%
O=C(Nc1ccccc1-c1nc2ccccc2s1)c1ccco1,32µM*
CS(=O)(=O)N1CCC2(CC1)CN(c1cccc(-c3ccccc3)c1)C2,32µM*
O=C(Oc1ccc(/C=N/O)cc1)c1ccccc1,6%
Cc1ccc(S(=O)(=O)C2(C(=O)Nc3ccc4c(c3)OCO4)CC2)cc1,-18%
COc1ccc(OC)c(NC(=O)C2C3CCC(O3)C2C(=O)O)c1 (stereo unspecified),-6%
Cc1cc(C)cc(-n2ccnc2SCC(=O)Nc2nccs2)c1,11%
CCOc1ccc(C(=O)N2CCCC2)cc1OC,8%
CCC1=C(OC(=O)N(CC)CC)N2C(=O)OC(=NCCc3c[nH]c4ccccc34)[C@]2(Cc2ccccc2)[C@H]2C1=CC[C@H]1C(=O)N(c3ccccc3)C(=O)[C@H]12,-1%
CCOC(=O)c1[nH]c(C)c(C(=O)Nc2ccc(C)cc2C)c1C,-3%
Nc1nnnn1/N=C/C(Br)=C/c1ccccc1,-25%
CCOC(=O)Cc1csc(NS(=O)(=O)c2ccc3c4c(cccc24)C(=O)N3CC)n1,?
COc1ccc(CNC(=O)CCCNS(=O)(=O)c2cccc3nonc23)cc1,1%
CCOc1cc(C2CC(=O)N3CN(C4CCCCC4)CSC3=C2C#N)ccc1O (stereo unspecified),?
Cc1ccc(-c2cc(C(=O)NCCN3CCOCC3)no2)cc1,5%
O=c1cc(N2CCc3ccccc3C2)[nH]c(=O)n1-c1ccc(Cl)cc1,-11%
O=C1CC(N2CCN(c3ccc(S(=O)(=O)N4CCOCC4)cc3)CC2)C(=O)N1Cc1ccccc1 (stereo unspecified),-3%
CN(C)CCCOc1nn(Cc2ccccc2)c2ccccc12,-29%[25.6 µM]
O=C(O)[C@@H](c1ccccc1)[C@@H](C(=O)O)c1ccccc1,0%[11.4 µM]
CCNc1ncc2ncc(=O)n(Cc3cccs3)c2n1,25µM*
COc1ccccc1NC(=O)c1cccc(NC(=O)c2ccco2)c1,-12%
COc1cc(CC(=O)OC2CCOC2=O)cc(OC)c1OC (stereo unspecified),1%
CCc1ccccc1N1CSC2=C(C#N)C(c3cc(OC)c(OC)cc3OC)CC(=O)N2C1 (stereo unspecified),?
CC(C)Cn1c(N)c(C(=O)CSc2nnnn2-c2ccc(Cl)cc2)c(=O)n(C)c1=O,0%
CNc1cc(-n2nc(C)cc2-c2ccccc2)ncn1,10%
COc1ccccc1Cn1c(CCCO)nc2ccccc21,2%
Cc1ccccc1NC(=O)CSC(N)=O,?
CN1C(=O)c2ccccc2C(C(=O)NCCCN2CCCC2=O)C1c1c[nH]c2ccccc12 (stereo unspecified),-5%
Brc1ccc(-c2cn3cccnc3n2)cc1,7.9µM*

Reprinted at random: 3 records from the list
SMILES,HSD17B inh
Cc1ccccc1NC(=O)CSC(N)=O,?
CC(C)Cn1c(N)c(C(=O)CSc2nnnn2-c2ccc(Cl)cc2)c(=O)n(C)c1=O,0%
Brc1ccc(-c2cn3cccnc3n2)cc1,7.9µM*

The listing continues:
SMILES,HSD17B inh
Cc1ccc(C(=O)N(Cc2nc(-c3ccc(C)cc3)no2)C(C)C)cc1,-12%
CCOCCCNC(=O)C1CCC(CNS(=O)(=O)c2ccc(F)cc2)CC1 (stereo unspecified),-2%
CN(C)/C=N/c1cc(=O)n(C)c(=O)n1Cc1ccccc1,5%
O=C(CNC(=O)c1ccco1)OCc1ccc(C(=O)Oc2ccccc2)cc1,2%
COCCn1cc(C(=O)N2CCC(C)CC2)c2c3ccccc3n(C)c2c1=O,32µM*
CCOC(=O)c1c(C)[nH]c(C)c1C(=O)COC(=O)c1cccc(S(=O)(=O)NC)c1,1%
CC(=O)OC1CC(C)(C)N(OC(=O)c2ccccc2)C(C)(C)C1,3%
Cc1nc(SCN2C(=O)c3ccccc3C2=O)n[nH]1,0%
CC1CCCCN1C(=O)CN1C(=O)CN(C)C(=O)c2ccccc21 (stereo unspecified),9%
O=C(NCc1ccc(F)cc1)C1CCN(S(=O)(=O)N2CCC3(CC2)OCCO3)CC1,2%
CCN1CCN(CCNC(=O)c2ccc(CS(=O)(=O)c3ccccc3C)o2)CC1,4%
CSC1=N/C(=C\c2ccccc2F)C(=O)S1,-13%
Cc1ccc(SCCNC(=O)C(CO)(CO)CO)cc1,0%
COc1cc(OC)cc(C(=O)NCCSCc2ccco2)c1,5%
O=C(COC(=O)CSc1nnc(-c2ccc(Cl)cc2)o1)NCc1ccc2c(c1)OCO2,13%

A portion of the library; count on the stated rates, not on these rows.
